RE007 growth inh = less growth of the S. pombe RE007 Vpr strain; AID 651644; Potency, µM (series often up to 92.2 µM), inactives show top-dose activity change, negative = less growth; S. pombe RE007 Vpr strain, BacTiter-Glo ATP luminescence, 24 h; control for the full effect not named in the record; actives 0.21% (n = 360,000); active = well fitted falling curve with a large enough effect; inconclusive = small, poorly fitted or top-dose-only effect; inactive = no such curve, though single readings can be large or run the other way;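 note: nearly all actives have a fitted effect of over 50% in size; the assay follows cell death caused by Vpr and the record does not say whether a fall means rescue or toxicity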
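Fission yeast RE007 carrying one integrated HIV-1 vpr copy, seeded at OD 0.01 in PMG+AL medium with 23 nL pinned compound. Grown 24 h at 30 degrees; viability read by BacTiter-Glo luminescence after 5 min.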
2A StopGo = FMDV 2A StopGo reporter, luciferase signal; human cells with a luciferase reporter of 2A StopGo recoding; control for the full effect not named in the record; Potency, µM (series often up to 57.9 µM), for inactives: at the top dose signal change, negative = less light; actives 1.2% (n = 410,000); active = well fitted falling curve with a large enough effect; inconclusive = small, poorly fitted or top-dose-only effect; inactive = no such curve, though single readings can be large or run the other way; tested in HEK293T cells; note: nearly all actives have a fitted effect of over 45% in size; luciferase light after 4 h
Active calls of the source: *; ? = inconclusive; [ ] = remark or other dose. % is set by controls: 0 for no effect and ±100 for the full control effect; potency is the fitted concentration of half-maximal effect. Only part of the results is shown, so the mix of outcomes need not match the whole.

Each structure is followed by: RE007 growth inh | 2A StopGo
COCCN(C(=O)COC(=O)c1ccc2ccccc2c1)c1c(N)n(Cc2ccccc2)c(=O)[nH]c1=O
→ 3% | -21%
Cc1cccc(C(=O)NC2CCN(CC(=O)Nc3cccc(Cl)c3)CC2)c1
→ -3% | ?
Cc1ccc(-c2nc3ccccc3n2C(C(=O)NC(C)(C)C)C2CC2)cc1 (stereo not drawn)
→ -9% | -5%
CC[C@]12C(=O)N(C)C[C@H]([C@@H]3C(=O)N(C)C(=O)[C@@H]31)N2C(=O)c1ccc(Br)cc1
→ -1% | -8%
OCc1ccc(N=Nc2ccccc2)cc1
→ -29% | 59%[activator]
O=C(COc1ccc(S(=O)(=O)N2CCOCC2)cc1Cl)NCc1ccc2c(c1)OCO2
→ -10% | -20%
CC1(C(=O)NCC2CCCCC2)CCN1C(=O)Cc1ccc(-c2ccccc2)cc1 (stereo not drawn)
→ -6%[18.4 µM] | ?
CCNC(=O)C1CCCN(C(=O)c2ccc(C(=O)OC)cc2)CC1 (stereo not drawn)
→ 5% | -7%
CCOC(=O)N(C)c1c(CC)nc2c(OCc3ccccc3)cccn12
→ -17% | -24%
CCO[C@H]1OC(C(=O)NCc2ccccc2)=C[C@@H](C(C)(C)C)[C@@H]1CCCO
→ 11% | 3%
C[C@H](CO)N1C[C@H](C)[C@@H](CN(C)C(=O)c2ccc(F)cc2)Oc2cc(Br)ccc2S1(=O)=O
→ 1% | -19%
O=C(O)CC1CC(O)CCC1=O (stereo not drawn)
→ 3% | -1%
O=C1CC(N2CC2)C(=O)N1c1ccccc1 (stereo not drawn)
→ -13% | -22%
CCOC(=O)[C@]12CCC=C1N(Cc1cccc3ccccc13)C(=O)[C@H](CC(=O)NCCCCc1ccccc1)C2
→ -6% | -18%
CCc1nc2ccc(C(=O)N3CCN(S(=O)(=O)CC)CC3)cn2c1N(CCC(C)C)CCN(C)C
→ -2% | 4%

The results go on:
Each structure is followed by: RE007 growth inh | 2A StopGo
C[C@@H]1CCCCO[C@H](CN(C)S(=O)(=O)c2cccs2)[C@@H](C)CN([C@H](C)CO)C(=O)c2cc(NC(=O)C3CCCCC3)ccc2O1
→ -2% | -19%
O=C(NCCc1cn2cccnc2n1)C1CCC(=O)N(Cc2ccccc2F)C1 (stereo not drawn)
→ -5% | -22%
Cc1ccc(N2CC(O)CSC2=Nc2ccccc2)cc1 (stereo not drawn)
→ 0% | -8%
COc1cccc(Nc2nc(C(N)CO)cs2)n1 (stereo not drawn)
→ 8% | -13%
Cc1c(Cl)cccc1NC(=O)CC(NCCN1CCOCC1)C(=O)O (stereo not drawn)
→ 1% | -5%
O=c1[nH]c2ccccc2nc1-c1nnnn1Cc1ccccc1
→ -16% | -23%
COCCCNc1ccn2nc(-c3cc(OC)c(OC)c(OC)c3)cc2n1
→ -19% | -4%
Oc1ccc(CCc2ccccn2)cc1
→ -10% | 23%
COc1ccc(C(=O)CC(C(=O)O)c2ccc(OC)c(OC)c2)cc1OC (stereo not drawn)
→ -10% | -12%
COc1cc(-c2cnc3c(NC=O)cc(-c4cccc(NC(C)=O)c4)cn23)cc(OC)c1OC
→ -10% | -24%
Cc1ccc(Cn2c(C)c(C(=O)NCc3ccc4c(c3)OCO4)sc2=O)cc1
→ 20%[18.4 µM] | -16%
Nc1ccn([C@@H]2O[C@H](CNCc3cnc(N4CCOCC4)nc3)[C@@H](O)[C@H]2O)c(=O)n1
→ 16% | ?
C[C@H](CO)N1C[C@H](C)[C@H](CN(C)C(=O)Nc2ccc(C(C)(C)C)cc2)OCc2cnnn2CCCC1=O
→ 2% | 6%
C=CCOC(=O)C1=C[C@H](c2csc3ccccc23)C[C@H](OCc2ccc(CO)cc2)O1
→ 9% | -28%
Cc1ccccc1CN1CC2=C(CCN(Cc3ccccc3)C2=O)N2CCN=C12
→ -16% | -20%

Continued:
Each structure is followed by: RE007 growth inh | 2A StopGo
COCCNc1nc(Oc2cccc(F)c2)c2sccc2n1
→ 1% | 0%
O=C(Nc1ccc2c(c1)OCO2)c1cc(C2CCCN(C(=O)CCc3ccccc3)C2)on1 (stereo not drawn)
→ -20% | 9%
C[C@@H]1COc2cc(N3CCSCC3)ccc2S(=O)(=O)N1
→ 18% | -5%
C[C@H]1C=C(C(=O)O)O[C@@H](OCc2ccc(CO)cc2)C1
→ 13% | -6%
c1ccc(OCCNc2ccn3nc(-c4cccs4)cc3n2)cc1
→ -23% | 12%
CC(C)C[C@H]1CN([C@@H](CC(C)C)CN2CCCC2CN2C(=S)NC[C@@H]2Cc2ccccc2)C(=S)N1CCc1ccccc1 (stereo partly drawn)
→ -26% | -12%
CC(=O)NC(c1ccc(F)c(F)c1)c1nc(-c2ccc(C)c(C)c2)cs1 (stereo not drawn)
→ -10%[18.4 µM] | -13%
COc1ccc2c(c1OC)C(=O)O[C@@H]2[C@H]1c2cc3c(cc2CCN1C)OCO3
→ 8%[18.4 µM] | -15%
c1cn2c(-c3ccc(N4CCOCC4)cc3)cncc2n1
→ 6%[18.4 µM] | 16%
COC(=O)N1CCC2CC1c1c(Cl)cccc12 (stereo not drawn)
→ 0% | -5%
COC[C@H]1CCCN1[C@@H]1CS(=O)(=O)N[C@H]1COCc1ccccc1
→ 16% | -3%
Cc1ccc(CN2[C@@H](CC(C)C)COCCS2(=O)=O)cc1
→ -5% | -3%
O=C(C[C@@H]1C=C[C@H](NC(=O)Cc2ccccn2)[C@@H](CO)O1)NCCc1ccccc1
→ 3% | -14%
CCCCC[C@@H]1CCCCC[C@@H](O)C[C@@H](O)[C@H](O)/C=C/C(=O)O1
→ -4% | -24%
Cc1ccc(CN2CCC(C)(Oc3ccc(Cl)cc3)C2)cc1 (stereo not drawn)
→ -26%[18.4 µM] | -13%

(cont.)
Each structure is followed by: RE007 growth inh | 2A StopGo
Cn1c2ccccc2c(=O)c2ccc(NCc3ccc4c(c3)OCO4)cc21
→ -27% | 17%
COc1ccc(-c2csc(C(NC(C)=O)c3cccc(F)c3)n2)cn1 (stereo not drawn)
→ 8%[18.4 µM] | -4%
C=C1CC[C@@H]2[C@](C)(CCC[C@@]2(C)/C=C/[C@@H](O)C(C)(C)O)[C@H]1CC(=O)NCCS(=O)(=O)O
→ 0% | -11%
CCCN(CCC)Cc1cc(=O)oc2cc(OC)ccc12
→ -6% | -3%
C[C@@H](c1ccccc1)N1C[C@H](COCc2ccccc2)Oc2cc(N3CCC[C@H]3CO)ccc2S1(=O)=O
→ 14% | 32%[activator]
COCCN1C(=O)CSCC1(C)C(=O)Nc1c(C)cccc1C (stereo not drawn)
→ 0% | -17%
Cc1ccccc1NC(=O)COC(=O)c1ccc2c(c1)C(=O)N(CCCN1CCOCC1)C2=O
→ 4% | -9%
COc1ccc2[nH]cc(CCNC(=O)/C=C/[C@H]3O[C@@H](n4cc(C)c(=O)[nH]c4=O)C[C@@H]3O)c2c1
→ 10% | -18%
CC(C)Oc1ccc(CN2CCC2(C)C(=O)NCc2ccc(C(F)(F)F)cc2)cc1 (stereo not drawn)
→ 3%[18.4 µM] | -15%
N#Cc1ccc(NC(=S)/N=C(\N)c2ccccc2)cc1
→ ? | -10%
CCc1nc2c(OCc3cc(Cl)cc(Cl)c3)cccn2c1N(C=O)Cc1ccccc1
→ -4% | -12%
Cc1ccc2ccccc2c1C(O)c1ncc(-c2ccc(F)cc2)[nH]1 (stereo not drawn)
→ -22% | -20%
O=C1C(=Cc2cccc(O)c2O)SC(=S)N1CCCN1CCOCC1
→ -2% | 0%
O=C(NCc1cccc(Cl)c1)c1cccc2c(-c3cccnc3)coc12
→ 2% | ?
S=C1NCCN1CC1CCN(CCCC2CCCC2)CC1
→ -1% | -19%

6 of these compounds, set out differently.
compound	RE007 growth inh	2A StopGo
C=C1CC[C@@H]2[C@](C)(CCC[C@@]2(C)/C=C/[C@@H](O)C(C)(C)O)[C@H]1CC(=O)NCCS(=O)(=O)O	0%	-11%
Cc1ccc(N2CC(O)CSC2=Nc2ccccc2)cc1 (stereo not drawn)	0%	-8%
C[C@@H](c1ccccc1)N1C[C@H](COCc2ccccc2)Oc2cc(N3CCC[C@H]3CO)ccc2S1(=O)=O	14%	32%[activator]
OCc1ccc(N=Nc2ccccc2)cc1	-29%	59%[activator]
CCNC(=O)C1CCCN(C(=O)c2ccc(C(=O)OC)cc2)CC1 (stereo not drawn)	5%	-7%
O=C1CC(N2CC2)C(=O)N1c1ccccc1 (stereo not drawn)	-13%	-22%

(list continues)
Each structure is followed by: RE007 growth inh | 2A StopGo
CC1(c2nnnn2-c2ccc3c(c2)OCCO3)CCC(=O)N1CC1CCCCC1 (stereo not drawn)
→ 3% | 2%
CC(=O)C1=CCC(c2ccco2)N(S(=O)(=O)c2ccc(C)cc2)C1 (stereo not drawn)
→ 10% | -24%
COCOc1cccc(CN2CCC2(C)C(=O)NCCNC(C)=O)c1 (stereo not drawn)
→ 50% | 0%
CCOc1ccc(NC(=O)c2ccc(F)c(S(=O)(=O)N3CCCC3)c2)cc1
→ -3% | ?
O=c1c2ccccc2sn1-c1ccccc1F
→ 35µM* | 0%
COc1ccccc1NC(=O)N(C)C[C@@H]1OCc2cnnn2CCCC(=O)N([C@H](C)CO)C[C@@H]1C
→ 8% | -11%
CCOC(=O)[C@]12CCC=C1N(Cc1ccccc1)C(=O)[C@H](CC(=O)N1CCCC1)C2
→ 2% | 1%
COC(=O)C1N[C@@H]([C@@H](NC(=O)COc2ccccc2)C(=O)NC2CC2)SC1(C)C (stereo partly drawn)
→ -8% | -8%
CCc1nc2c(OCCn3cccc3)cccn2c1N(C=O)Cc1ccccc1
→ -7% | -19%
Cc1cc(Br)ccc1NC(=O)CCCOc1cc(=O)n(C)c2ccccc12
→ -2% | -3%
CCc1nc2ccc(C(=O)N3CCN(C)CC3)cn2c1N(C)CCCc1ccccc1
→ -15% | -7%
Cc1noc(NS(=O)(=O)c2ccc(NC(=O)/C=C/c3ccc(Cl)cc3Cl)cc2)c1C
→ -15% | -5%
COc1cc(Cl)c(C)cc1NC(=O)c1ccccc1NC(=O)CN1CCN(C(C)=O)CC1
→ 15% | ?
O=C(NC(c1ccc(-c2ccccc2)cc1)c1cnccn1)C1CCN(Cc2ccc3c(c2)OCO3)CC1 (stereo not drawn)
→ -6%[18.4 µM] | -29%
C[C@H]1CN(CCc2ccccc2)C(=O)[C@@H]1CC(=O)Nc1ccc(Br)cc1
→ 10% | 0%

(listing goes on)
Each structure is followed by: RE007 growth inh | 2A StopGo
CN(Cc1c(C(=O)N/N=C/c2c(F)cccc2Cl)nnn1-c1nonc1N)C1CCCCC1
→ -1% | -3%
COC(=O)c1sccc1-n1cc2c(c1-c1ccccc1)c(=O)n(C)c(=O)n2C
→ 33% | -20%
O=C(Nc1ccccc1F)c1ccc2sc([C@@H]3O[C@H](CO)[C@H](O)[C@H](O)[C@H]3O)nc2c1
→ -14% | 24%
COc1ccc(CN(C)C[C@@H]2OCCCC[C@@H](C)Oc3ccc(N(C)C)cc3C(=O)N([C@H](C)CO)C[C@@H]2C)cc1
→ 1% | -24%
CCOC(=O)C1=C(COC(=O)/C=C/c2ccc(F)cc2)NC(=O)NC1C (stereo not drawn)
→ 1% | -21%
CN(C)S(=O)(=O)c1cccc(NC(=O)CCCC2CCCCC2)c1
→ 0% | 32%[activator]
CCCc1nc2ccc(Cl)cn2c1Cc1ccsc1
→ ? | 3%
COc1cccc(C(NC(C)=O)c2nc(-c3cccc(C(=O)O)c3)cs2)c1 (stereo not drawn)
→ 16% | 28%
CCCS(=O)(=O)NC(=O)C1(C)CCCN(C(=O)c2cc3ccccc3s2)C1 (stereo not drawn)
→ -1% | -4%
CC(C)S(=O)(=O)NC(=O)C1(C)CCN1C(=O)Cc1ccccc1 (stereo not drawn)
→ 10% | -4%
COc1cccc(CNc2nc3cc(-c4ccccc4C)sc3c(=O)n2C)c1
→ 12% | -27%
COc1ccc(NS(=O)(=O)c2ccc(C)c(C(=O)NCc3ccccc3CN3CCCC3)c2)cc1
→ -13% | -3%
FC(F)(F)c1ccccc1Cc1c(-c2ccccc2)nc2c3ccccc3ccn12
→ -12% | 5%
Nc1[nH]c(C(=O)c2ccccc2)c(-c2ccc(Br)cc2)c1C(=O)NC1CCCCC1
→ 8% | -10%
CCCCN(C=O)c1c(CC)nc2c(OCc3ccccc3C)cccn12
→ -22% | -7%

Carrying on:
Each structure is followed by: RE007 growth inh | 2A StopGo
COC(=O)N1CCCCC1c1cc(C(=O)N2CCOCC2)no1 (stereo not drawn)
→ 0% | -2%
Nc1ccn(CCCNCC(c2ccccc2)c2ccccc2)c(=O)n1
→ -19% | -13%
COc1ncccc1-c1cc2nc(NCCCN(C)C)n(C)c(=O)c2s1
→ -16% | -13%
Cn1nc(N)c2ncc(C(Cl)(Cl)Cl)nc21
→ 0% | -20%
CN1C(=O)[C@H]2[C@@H](c3ccccc3)N[C@]3(CCCN(Cc4ccco4)C3=O)[C@H]2C1=O
→ 4% | -19%
O=C(Nc1ccc(C(=O)N2CCOCC2)cc1)C1CCCC1
→ -10% | -11%
COc1ccc(C(O)c2ncc(-c3ccc4ccccc4c3)[nH]2)cc1F (stereo not drawn)
→ 7%[18.4 µM] | 27%
CC(=O)Nc1cccc(-c2ccnc3c2CC(C)(C(=O)Nc2ccc(Cl)cc2)O3)c1 (stereo not drawn)
→ 12% | 0%
CCCCCCCCN1C(=O)[C@H](CC(=O)NCCC(C)C)C[C@@]2(C(=O)OCC)CCC=C12
→ 0% | 7%

Compound activity as filed in PubChem.
